Bioassay records deposited in PubChem BioAssay by National Center for Advancing Translational Sciences (NCATS).
Cruzain noTriton = cruzain (T. cruzi) inhibition without detergent; P25779; purified cruzain, Z-FR-AMC fluorescence, no detergent; Potency, µM, without a hit: max response, negative = inhibition, actives largely listed as inhibitors; hit rate 2.3% among 200,000; AID 1476; active = well fitted curve in the direction sought with a large enough effect; inconclusive = small, poorly fitted or top-dose-only effect, or another doubt; inactive = no such curve, though single readings can be large; an effect the other way counts as inactive or inconclusive;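 also: plate controls were enzyme without inhibitor for no effect and buffer without enzyme for full effect; nearly all actives have a fitted effect of over 40% in size; top concentration of the series not given in the record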
Target sequence (P25779 123-467 limits assumed): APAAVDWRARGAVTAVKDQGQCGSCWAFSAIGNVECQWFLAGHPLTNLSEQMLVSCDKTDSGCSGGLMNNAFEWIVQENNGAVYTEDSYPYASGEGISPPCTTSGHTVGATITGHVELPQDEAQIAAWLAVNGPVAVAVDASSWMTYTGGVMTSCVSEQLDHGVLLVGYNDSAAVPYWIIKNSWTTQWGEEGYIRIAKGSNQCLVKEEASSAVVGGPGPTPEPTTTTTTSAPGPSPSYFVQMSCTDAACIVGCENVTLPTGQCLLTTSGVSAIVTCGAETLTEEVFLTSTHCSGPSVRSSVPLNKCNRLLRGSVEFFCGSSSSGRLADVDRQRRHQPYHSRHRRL
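Purified cruzain at 1.5 nM, pre-incubated 15 min with compound at room temperature in 100 mM sodium acetate pH 5.5, 5 mM DTT, 0.00005% Triton X-100. Reaction started with 2 uM Z-FR-AMC; AMC fluorescence increase over 60 s gives rate.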
MARV entry inh = blocks Marburg virus binding to or entry into cells; Marburg virus pseudotyped entry inhibition, cell reporter; control for the full effect not named in the record; about a third of the inactives were read at about 46 µM; Potency, µM (titrated, usually from 37.8 µM), for the others: at the highest dose activity change, negative = inhibition, most hits filed as inhibitors; hit rate 1.8% among 300,000; AID 540276; active = well fitted inhibition curve with a large enough effect; inconclusive = small, poorly fitted or top-dose-only effect, or effect the other way; inactive = flat fitted curve, though single readings scatter; tested in HEK293 cells; about a fifth of its hits are not listed in these tables; also: % is scaled to controls: 0 for no effect and ±100 for the full control effect; luciferase read-out
RE007 growth inh = less growth of the S. pombe RE007 Vpr strain. S. pombe RE007 Vpr strain, BacTiter-Glo ATP luminescence, 24 h; control for the full effect not named in the record. Potency, µM (titrated, usually from 92.2 µM), for inactives: top-dose activity change, negative = less growth. hit rate 0.21% among 360,000. AID 651644; active = well fitted falling curve with a large enough effect; inconclusive = small, poorly fitted or top-dose-only effect; inactive = no such curve, though single readings can be large or run the other way;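 also: % is scaled to controls: 0 for no effect and ±100 for the full control effect; nearly all actives have a fitted effect of over 50% in size; the assay follows cell death caused by Vpr and the record does not say whether a fall means rescue or toxicity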
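Fission yeast strain RE007, carrying one chromosomally integrated HIV-1 vpr copy, was seeded at OD 0.01 in PMG+AL medium with 23 nL pinned compound. After 24 h at 30 °C and 99% humidity, viability was read by BacTiter-Glo luminescence.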
NS1 function inh = influenza NS1 inhibition | S. cerevisiae slowed by influenza A NS1, growth recovery by OD600 | Potency, µM (top dose mostly 46.1 µM), without a hit: at the highest dose activity, positive = more growth | hit rate 0.4% among 270,000; also: actives are rising curves; nearly all actives have a fitted effect of over 50% in size
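Growth recovery, yeast-based: influenza A NS1 expressed in S. cerevisiae causes slow growth, and suppressors are detected by OD600. The parent strain without NS1 is used as positive control.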
StopGo reporter = lowers the luciferase signal of an FMDV 2A StopGo reporter | AID 1159524 | hit rate 1.2% among 410,000 | Potency, µM (titrated, usually from 57.9 µM), for the others: at the highest dose signal change, negative = less light | human cells with a luciferase reporter of 2A StopGo recoding; control for the full effect not named in the record; active = well fitted falling curve with a large enough effect; inconclusive = small, poorly fitted or top-dose-only effect; inactive = no such curve, though single readings can be large or run the other way; tested in HEK293T cells; also: % is scaled to controls: 0 for no effect and ±100 for the full control effect; nearly all actives have a fitted effect of over 45% in size; luciferase light after 4 h
LASV entry inh = Lassa virus entry inhibition; Lassa virus pseudotype entry inhibition, cell reporter; control for the full effect not named in the record; hit rate 1.2% among 300,000; Potency, µM (doses to about 37.9 µM), for the others: at the top dose activity change, negative = inhibition, hits mostly inhibitors; active means well fitted inhibition curve with a large enough effect; inconclusive means small, poorly fitted or top-dose-only effect, or effect the other way; inactive means flat fitted curve, though single readings scatter; tested in HEK293 cells; also: % is scaled to controls: 0 for no effect and ±100 for the full control effect; nearly all actives have a fitted effect of over 50% in size; luciferase read-out
SARS PLP yeast = blocks SARS-CoV papain-like protease in a yeast assay. S. cerevisiae expressing SARS-CoV PLpro, growth rescue; control for the full effect not named in the record. Potency, µM (titrated, usually from 32.9 µM), for inactives: at the highest dose activity, positive = growth rescue. hit rate 0.19% among 330,000. AID 485353; also: 0% is about no effect; nearly all actives have a fitted effect of over 55% in size; growth read by luminescence after 48 h
Cruzain Triton = cruzain (T. cruzi) inhibition with detergent | P25779 | purified cruzain, Z-FR-AMC fluorescence, 0.01% Triton | Potency, µM, without a hit: max response, negative = inhibition, usual class: inhibitors | hit rate 0.43% among 200,000 | AID 1478; active = well fitted curve in the direction sought with a large enough effect; inconclusive = small, poorly fitted or top-dose-only effect, or another doubt; inactive = no such curve, though single readings can be large; an effect the other way counts as inactive or inconclusive;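 also: plate controls were neutral wells for no effect and buffer without enzyme for full effect; nearly all actives have a fitted effect of over 40% in size; top concentration of the series not given in the record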
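Detergent-containing arm of a paired screen for aggregation-based inhibition: 0.01% Triton X-100 present. Cruzain at 1.5 nM cleaved 2 uM Z-FR-AMC at pH 5.5 with 5 mM DTT; AMC fluorescence gain over 60 s measured activity.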
Numbers without * were called inactive; u = inconclusive; x = no result given; & = joins results of further samples; [ ] = remark or other dose. Unless noted, calls follow the shape of the dose curve; as a rule, active means well fitted rising curve with a large enough effect; inconclusive means small, poorly fitted or top-dose-only effect; inactive means no such curve, though single readings can be large or run the other way. Potency is read from the fitted curve at half-maximal effect.

SMILES	Cruzain noTriton	MARV entry inh	RE007 growth inh	NS1 function inh	StopGo reporter	LASV entry inh	SARS PLP yeast	Cruzain Triton
CCOC(=O)C1=C(N)n2c(s/c(=C\c3ccncc3)c2=O)=C(C(=O)OCC)C1c1ccncc1 (centres undefined)	x	u	14%	1%	-29%	3%	0%	x
O=C(Nc1ccccc1C(=O)O)c1ccccc1	-5%	-17%	2%	-4%	x	-4%	-4%	4.1%
O=C(NC1CCN(C(=O)Nc2cccc(Cl)c2)CC1)c1ccccc1	x	-8%[46.1 µM]	-4%	4%	-7%	1%[46.1 µM]	1%	x
CCOC(=O)C1CCCCN1Cc1ccc(OC)c(OC)c1OC (centres undefined)	-5%	-12%	3%	9%	-26%	1%	6%	-3.0%
O=C(c1ccc(CS(=O)(=O)c2ccccc2)o1)N1CCC2(CC1)OCCO2	-17%	-18%	-8%	24%	6%	19%	11%	2.3%
Cn1c(=O)c2c(SCc3cccnc3)nc(C3CC3)nc2n(C)c1=O	-6%	x	14%	-37%	u	x	3%	-0.6%
COc1ccc(OC)c(-c2csc(N(CC3CCCO3)C(=O)C3CCCCC3)n2)c1 (centres undefined)	x	-18%	-15%	0%	3%	-1%	0%	x
N#Cc1cccc(NC(=O)CC2CCCC2)c1	x	u	1%	-3%	33%[activator]	-17%[46.1 µM]	1%	x
CCC1CCC(N2CCN(c3cccc(OC)c3)CC2)CC1 (centres undefined)	x	x	-7%	4%	-20%	x	1%	x
Cc1ccc(N2CN(Cc3ccco3)CNC2=S)cc1	x	u	-4%	x	-4%	5%	14%	x
CCCn1c(SCC(=O)c2cc(C)ccc2C)n[nH]c1=O	-5%	7%	10%	-1%	u	0%	2%	-2.9%
CN1CCN(CCc2nc3cc(NC(=O)c4ccco4)ccc3n2C)CC1	x	2%[46.1 µM]	-5%	5%	8%	20%	1%	x
Cc1onc(-c2ccccc2)c1C(=O)OCc1nnc(-c2ccc([N+](=O)[O-])cc2)o1	x	-2%	-2%	x	-1%	7%	1%	x
CCOc1cc(C2C(C(=O)OC)=C(C)NC3=C2C(=O)c2ccccc23)cc(Br)c1OCC (centres undefined)	7%	u	x	x	-30%	-5%[46.1 µM]	x	-2.0%
CCC(C(=O)O/N=C(\N)c1ccccc1)c1ccccc1 (centres undefined)	2%	28%[46.1 µM]	0%	4%	11%	u	-7%	-3.8%
S=C(Nc1ccccc1)Nc1ccc2ccccc2c1	x	u	-24%	x	42%[activator]	15%[46.1 µM]	x	x
CCc1cc2c(NCC3CCCO3)nc(C)nc2s1 (centres undefined)	0%	-26%	20%	-5%	u	u	5%	-2.6%
CCn1c2ccccc2c2cc(NC(=O)CSc3nnc(-c4cccc(C)c4)o3)ccc21	7.9µM*	-26%	11%	-7%	u	-27%	-7%	6.7%
O=C(CN1CCCCCC1)N/N=C/c1cccc(Cl)c1Cl	-12%	u	-11%	12%	5%	14%	-16%	-9.6%
CCOc1ccccc1C(=O)N[C@H](C(=O)Nc1ccc(OC)c(S(=O)(=O)N2CCOCC2)c1)C(C)C	x	17%	2%	x	20%	-22%	4%	x
COc1ccc(-c2nc3sc(CCNC(=O)C(=O)Nc4ccc(C)cc4C)c(C)n3n2)cc1	-22%	x	x	x	13%	27%[46.1 µM]	x	-1.0%
Cc1cc(C(=O)Nc2c(F)c(F)c(F)c(F)c2F)n(-c2ccccc2)n1	x	23%[46.1 µM]	-13%	x	-11%	-3%	-3%	x
CCCCc1nc(C(N)=O)c2[nH]c(=O)n(-c3ccccc3F)c2n1	x	x	4%	0%	4%	x	u	x
Cc1ccccc1CSCC(Nc1ccc(C(=O)O)cc1[N+](=O)[O-])C(=O)O (centres undefined)	-4%	-2%	4%	4%	6%	-4%	4%	-2.9%
Cc1ccc(O)c(CNc2cccc(C)n2)c1	x	-7%	4%	8%	16%	11%	1%	x
CCOC(=O)c1ccc(N2C(=O)c3n[nH]c(C)c3C2c2ccc(O)cc2)cc1 (centres undefined)	8%	4%	19%	-23%	-18%	-12%	u	-5.4%
O=C(CSc1n[nH]c(=O)n1Cc1ccccc1)Nc1ccc(N2CCOCC2)cc1	x	-22%	-14%	x	u	8%	-2%	x
CCCOc1ccc(N2CC(C(=O)Nc3ccc(N4CCOCC4)cc3)CC2=O)cc1 (centres undefined)	x	10%[46.1 µM]	-16%	1%	9%	12%[46.1 µM]	0%	x
Cc1cccc(C(=O)N/N=C/c2ccc3c(c2)OCO3)n1	3%	12%	-5%	-13%	34%[activator]	9%	-2%	-3.6%
O=C(c1cccs1)N1CCN(c2ncc(C(F)(F)F)cc2Cl)CC1	x	-18%	-25%	-13%	u	u	-5%	x
CC(=O)N1c2ccc(S(=O)(=O)NCC3CCC(C(=O)Nc4ccc(C)cn4)CC3)cc2CC1C (centres undefined)	x	u	-5%	-18%	u	u	-1%	x
Cc1ccc(NC(=O)CCC(=O)c2cccs2)c(Br)c1	x	0%[46.1 µM]	3%	-1%	33%[activator]	-1%[46.1 µM]	-8%	x
Cc1nnc(-c2ccc(Cl)cc2)nc1NCCN(C)C	x	-6%[46.1 µM]	18%	7%	-7%	u	1%	x
CCCNC(=O)CCc1c(C)nc2nc(C)nn2c1C	x	8%[46.1 µM]	-3%	x	-14%	-12%	1%	x
COc1ccc(CCNC(=O)c2ccc(=O)[nH]c2)cc1OC	x	u	-7%	4%	2%	u	3%	x
COc1ccc(NC(=O)C(=O)N/N=C(\C)CC(=O)Nc2ccccn2)c(OC)c1	x	10%[14.2 µM]	-24%	4%	-13%	8%	0%	x
COc1cc2nc(Cl)nc(N3CCOCC3)c2cc1OC	x	-11%[46.1 µM]	-6%	x	-26%	1%	1%	x
CCN(CC)S(=O)(=O)c1cc(NC(=O)CCCOc2ccc(C(C)=O)cc2)ccc1C	-1%	u	-4%	-14%	16µM*	u	-2%	-5.4%
CC1(C)CC(N(Cc2cccs2)C(=O)c2ccco2)CCO1 (centres undefined)	-3%	-2%	30%	u	0%	-3%	-1%	0.7%
Cc1cc(NC(=O)c2ccc(COc3ccc(Cl)c(C)c3)o2)no1	25µM*	2%	-11%	10%	21%	-36%[14.3 µM]	-3%	-1.8%
O=C(CCCCCN1C(=O)c2cccc3cccc(c23)C1=O)NCc1cccnc1	x	4%[46.1 µM]	-12%	4%	-18%	-1%	0%	x
Cc1ccccc1-c1n[nH]c(=S)n1/N=C/C=C/c1ccco1	x	x	4%	2%	-17%	x	1%	x
Cn1cc(Br)c(NS(=O)(=O)c2ccc(Cl)s2)n1	x	x	-8%	-5%	-11%	x	0%	x
O=C(COC(=O)C1=Cc2ccccc2OC1)NCc1ccc(F)cc1	x	2%[46.1 µM]	1%	x	-14%	13%	x	x
CC(=O)CSc1ncnc2nc[nH]c12	1%	-9%	8%	2%	-12%	-7%	1%	3.9%
COC(=O)c1scc(C)c1N/N=C(\C)c1ccc(F)cc1F	0%	-2%	-21%	-1%	-13%	-6%	-9%	-12%
CCCCS(=O)CC(COCc1ccccc1)OC(=O)CSc1nc(C)cc(C)n1 (centres undefined)	u	6%	4%	-13%	-19%	5%	1%	-2.3%
O=C(CNc1ccccc1F)Nc1cccc(S(=O)(=O)N2CCCCC2)c1	x	-28%[46.1 µM]	-1%	x	-6%	-28%	2%	x
CCN(CC)C(=O)C1CCCN(Cc2ccc(OC)c(C)c2)C1 (centres undefined)	-8%	u	-16%	0%	4%	12%	-4%	2.8%
CCC1CCCCN1CCCNC(=O)C1CCC(=O)N1Cc1ccc(C)cc1 (centres undefined)	-5%	3%	-14%	-3%	-15%	16%	2%	0.7%
Next section
SMILES	Cruzain noTriton	MARV entry inh	RE007 growth inh	NS1 function inh	StopGo reporter	LASV entry inh	SARS PLP yeast	Cruzain Triton
COc1ccc(CCNC(=O)c2ccco2)cc1	-1%	8%	0%	-8%	33%[activator]	3%	-7%	-2.4%
CC(C)CC(=O)NCc1ccc2[nH]c3c(c2c1)CCCC3	x	-8%	5%	x	-2%	-20%	-4%	x
CCOc1ccc(OCC)c(NC(=O)CN(C)S(=O)(=O)c2ccc3nc(C)sc3c2)c1	u	-3%	7%	18%	32µM*	u	-37%	-4.8%
Cc1ccc2oc(=O)c3cnn(CC(=O)N(Cc4ccco4)C4CCCCC4)c3c2c1	-22%	x	16%	6%	u	x	3%	-5.1%
O=C(c1ccccc1F)N1CCN(CC2CC3C=CC2C3)CC1 (centres undefined)	-5%	18%	12%	-6%	-1%	20%	13%	1.5%
CCOC(=O)Cc1csc(SCC(=O)Nc2ccc(C)cc2F)n1	x	-9%	-4%	x	-28%	13%	5%	x
O=C(CCCn1c(=S)[nH]c2ccccc2c1=O)NCCSCc1ccccc1	x	u	13%	x	-1%	-15%[46.1 µM]	0%	x
CCOc1ccc(N(CC(=O)Nc2ccc(C)c(C)c2)S(C)(=O)=O)cc1	x	13%	-13%	1%	55%[activator]	8%	3%	x
S=c1[nH]c2cc(Cl)c3cccnc3c2o1	x	1%[46.1 µM]	7%	4µM*	5%	0%[46.1 µM]	-4%	x
Cc1ccc(C)c(N(C(=O)Cn2nnc3ccccc32)C(C(=O)NCc2ccco2)c2ccncc2)c1 (centres undefined)	7%	-29%&-29%[46.1 µM]	16%	0%	15%	8%	2%	-1.3%
CN(C)c1cc2c(cc1NC(=O)c1ccc(F)cc1)n(C)c(=O)n2C	-3%	5%[46.1 µM]	x	x	-17%	-4%[46.1 µM]	x	-6.5%
CC(=O)Nc1ccc(S(=O)(=O)NNC(=O)c2ccc(S(=O)(=O)N3CCCCC3)cc2)cc1	-1%	u	9%	3%	6%	-13%	2%	-0.2%
CCOc1ccc(NC(=S)N2CCN(S(=O)(=O)c3ccccc3)CC2)cc1	x	-8%	10%	-25%	60%[activator]	u	4%	x
